miR-21 FLuc: miR-21 reporter, rising signal. HeLa miR-21 FLuc reporter, luciferase, 48 h. Potency, µM (highest dose often 38.3 µM), for inactives: at the highest dose reporter change, positive = more light. 340,000 tested, under 10 active. AID 2288; active = well fitted rising curve with a large enough effect; inconclusive = small, poorly fitted or top-dose-only effect; inactive = no such curve, though single readings can be large or run the other way;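 note: % of control where 0% means no effect; miR-21 action dims this reporter so a rising signal means less miR-21 action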
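HeLa cells endogenously expressing miR-21, stably carrying CMV-driven firefly luciferase with a downstream miR-21 binding site, 2000 cells/well. Titrations up to approximately 40 uM, 48 hours; luciferase luminescence read.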
GLA inh pH 4.5: inhibitors of human alpha-galactosidase A at pH 4.5. 230,000 tested, under 10 active. purified enzyme, 4-MU-alpha-Gal fluorescence, pH 4.5. activity change, negative = inhibition, % at 105 µM. P06280. AID 1467; inconclusive = small, poorly fitted or top-dose-only inhibition, or a rising curve; inactive = flat fitted curve, though single readings scatter; no compound was filed as active;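 note: 0% = full activity with enzyme and -100% = basal without enzyme; dose as in the result columns while the protocol names 77 µM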
Rango-impB inh: inhibitors of Rango-importin beta complex formation | Rango CFP/YFP FRET sensor + importin beta, 45 min | Potency, µM (doses to about 92.2 µM), inactives show top-dose inhibition of complex formation | actives 0.031% (n = 340,000) | AID 540263; active = rising FRET ratio curve, often small or poorly fitted; inconclusive = mostly compound fluorescence or quenching in the first reads; inactive = flat curves in all reads;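 note: potency is the fitted concentration of half-maximal effect; 0% = DMSO wells and 100% = buffer wells lacking importin beta; nearly all actives have a fitted effect of over 15% in size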
Target sequence (Q14974 whole entry, looked up): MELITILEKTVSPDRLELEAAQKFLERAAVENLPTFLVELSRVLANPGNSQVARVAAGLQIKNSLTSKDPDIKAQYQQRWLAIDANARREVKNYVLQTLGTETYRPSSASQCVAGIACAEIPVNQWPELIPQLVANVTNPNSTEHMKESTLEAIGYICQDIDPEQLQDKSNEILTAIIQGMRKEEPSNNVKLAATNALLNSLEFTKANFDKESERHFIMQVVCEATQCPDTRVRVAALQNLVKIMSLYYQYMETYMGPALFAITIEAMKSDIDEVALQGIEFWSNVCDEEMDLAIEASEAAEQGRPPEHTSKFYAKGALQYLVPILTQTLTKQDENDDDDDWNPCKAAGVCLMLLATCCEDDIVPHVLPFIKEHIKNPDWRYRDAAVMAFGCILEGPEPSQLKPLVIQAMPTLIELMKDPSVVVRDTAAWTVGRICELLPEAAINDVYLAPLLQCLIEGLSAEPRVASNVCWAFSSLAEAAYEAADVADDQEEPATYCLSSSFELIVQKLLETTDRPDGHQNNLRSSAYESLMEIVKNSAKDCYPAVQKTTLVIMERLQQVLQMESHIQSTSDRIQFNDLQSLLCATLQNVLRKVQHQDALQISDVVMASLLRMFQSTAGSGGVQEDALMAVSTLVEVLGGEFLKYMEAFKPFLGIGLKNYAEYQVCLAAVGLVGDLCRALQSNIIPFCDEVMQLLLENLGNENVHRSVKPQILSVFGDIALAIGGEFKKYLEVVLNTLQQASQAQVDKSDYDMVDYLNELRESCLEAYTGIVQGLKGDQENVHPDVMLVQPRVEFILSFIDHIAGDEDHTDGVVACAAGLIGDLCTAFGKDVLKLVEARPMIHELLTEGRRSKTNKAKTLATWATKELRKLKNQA
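FRET biosensor Rango (snurportin 1 IBB between N-terminal EYFP and C-terminal Cerulean), 50 nM in PBS/1 mM DTT/0.02% Tween-20/0.1% BSA, preincubated 5 min RT with compound; 0.125 microM importin beta added, 45 min RT, CFP/YFP FRET ratio read.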
Rango dissoc inh: inhibition of RanGTP-driven Rango-importin beta dissociation | O95149+P62826 | Biochemical FRET Rango-importin beta, RanGTP-induced dissociation | Potency, µM (highest dose often 46.1 µM), for the others: at the top dose activity change, negative = inhibition | actives 0.071% (n = 340,000) | AID 540253; active means falling FRET ratio curve, often poorly fitted, with flat reads before Ran was added; inconclusive means other falling curves, or compound fluorescence or quenching; inactive means flat or rising ratio curve;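 note: potency is the fitted concentration of half-maximal effect; % of control where 0% means no effect; nearly all actives have a fitted effect of over 45% in size; -100% = wells without RanGTP and RCC1; the record marks most hits as doubtful in a second field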
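Recombinant Rango FRET biosensor (EYFP–snurportin 1 IBB–cerulean CFP10) at 0.1 uM premixed with 0.25 uM importin beta in PBS, 1 mM DTT, 0.02% Tween-20, 0.1% BSA. Compound added 5 min; RanGTP-RCC1 (0.6 uM Ran, 2 mM GTP, 0.2 uM RCC1) then triggers release, read at 45 min.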
An asterisk follows results filed as active; ? = inconclusive; / = not tested or not shown; & = joins results of further samples. This is a subset; count on the stated rates, not on these rows.

Sequence of screens – Rango dissoc inh, Rango-impB inh, miR-21 FLuc, GLA inh pH 4.5
CCOC(=O)c1cc(/C(C)=N/OC(=O)c2ccc(Cl)cc2)on1
  -4%, 0.3%, 5%, 5
CCOc1ccccc1N(C(=O)CNC(=O)c1ccco1)C(C(=O)NC1CCCC1)c1cccnc1 (stereo unspecified)
  -1%, -1.2%, -5%, -1
CC(=O)Nc1ccc(NC(=O)COC(=O)c2ccco2)cc1
  -4%, 0.2%, 8%, 8
CC(C)CC(=O)NC(NC(=S)Nc1cccc2cccnc12)C(Cl)(Cl)Cl (stereo unspecified)
  -14%, -4.6%, 21%, -5
C=CCNC(=O)c1onc(CSc2cc(C)ccc2C)c1C(=O)O
  -3%, ?, 9%, -3
COc1ccccc1CN1CC(C(=O)NC2(c3ccccc3)CC2)CCC1=O (stereo unspecified)
  3%, 1.3%, -11%, /
N=c1sccn1CC(=O)NC(c1ccccc1)c1ccccc1
  4%, 2.5%, -14%, -5
CC(=O)Oc1cc(O)c2c(c1)OC(c1ccc(OC(C)=O)c(OC(C)=O)c1)C(OC(C)=O)C2=O (stereo unspecified)
  0%, -2.4%, -2%, /
CCc1ccc(CCC(=O)Nc2ccc(C(C)=O)cc2)o1
  5%, 0.3%, -14%, -1
O=C(COc1ccccc1)N(Cc1cccc(F)c1)C1CCS(=O)(=O)C1 (stereo unspecified)
  -24%, -0.3%, -2%, /
CN(C)c1ccc(C(=O)NNC(=O)Nc2ccccc2)cc1
  31%, 1.6%, -4%, 1
COc1ccc(CNC(=O)CCn2nc(C)c3c(C)n(-c4ccccc4)nc3c2=O)c(OC)c1
  -5%, 6.4%, 0%&-2%, /
O=[N+]([O-])c1ccc(OC/C=C2\Oc3ccc([N+](=O)[O-])cc3C2N2CCOCC2)cc1 (stereo unspecified)
  -3%, -0.1%, 7%, 2
Cc1c(NCc2cc(Cl)cc(Cl)c2O)c(=O)n(-c2ccccc2)n1C
  ?, ?, -2%, -4
CCCCNS(=O)(=O)c1ccc2nc(SCC(N)=O)[nH]c2c1
  2%, 2.7%, 9%, -3
CCOCCCNC(=O)C1(O)c2cc(Br)ccc2NC(=O)N1c1cccc(OC)c1 (stereo unspecified)
  -20%, ?, 2%, /
COc1ccc(C(C(=O)NC2CCCC2)N2CCc3ccccc32)cc1 (stereo unspecified)
  -2%, -1.1%, -5%, 10
CSc1ccccc1C(=O)Nc1cc2c(cc1C(=O)O)OCCCO2
  0%, 5.7%, -3%, /
COCCSc1nc(N)c(NC(=O)c2ccco2)c(=O)[nH]1
  7%, -4.7%, 0%, /
CCOC(=O)c1cc(-c2ccccc2)nc2c(O)cccc12
  -5%, 0.5%, /, /

The list goes on:
Sequence of screens – Rango dissoc inh, Rango-impB inh, miR-21 FLuc, GLA inh pH 4.5
O=S(=O)(/N=C(/Nc1cccc2ccccc12)c1ccccc1)c1ccc(F)cc1
  9%, 0.5%, -6%, /
CC(=O)Nc1ccc(NC(=O)C(C)OC(=O)CCCc2c[nH]c3ccccc23)cc1 (stereo unspecified)
  -13%, 3.6%, /, /
Cn1ccsc1=NC(=O)c1ccc(S(C)(=O)=O)cc1
  -7%, 0.7%, -42%, /
COc1ccc2c(c1)cc1c(=O)n(CC(=O)NC(C)CCc3ccccc3)nc(C)n12 (stereo unspecified)
  0%, ?, 3%&-7%, /
O=[N+]([O-])c1cccc(/C=N/n2cnnc2)c1O
  -17%, -5.1%, -3%, -13
CN(C)CCNc1nc(-c2ccco2)c2c(c1C#N)CC(C)(C)OC2
  -10%, ?, 0%, 11
COc1ccccc1Oc1ccc(S(=O)(=O)N2CCCC2)cc1
  15%, -0.5%, -3%, -13
COC(=O)c1sccc1NC(=O)Nc1ccccc1Cl
  24%, 1.0%, -4%, /
COc1cc(/C=N/NC(=O)c2ccc(CSc3nc4ccccc4[nH]3)cc2)ccc1O
  0%, -3.2%, -19%, -6
O=C(CSc1cn(Cc2cccc(F)c2)c2ccccc12)NCc1ccc(F)cc1
  -11%, 0.2%, -6%, 0
COc1ccc(C(=O)Cn2c(=O)oc3ccc(C)cc32)cc1
  -11%, 2.7%, -9%, /
CS(=O)(=O)c1ccc(N2CCN(c3ccccn3)CC2)c([N+](=O)[O-])c1
  3%, 5.6%, -4%, /
COc1ccc(S(=O)(=O)N2CCC3(CC2)OCCN3S(=O)(=O)c2cccs2)cc1OC
  -8%, 4.4%, /, /
C/C(=N\NC(=O)c1ccc(=O)[nH]n1)c1cccnc1
  -15%, 5.5%, 0%, -2
Cc1cc(C)nc(SCc2nc3nc(C)cc(C)n3c2Br)n1
  -14%, 1.7%, -29%, 2
O=C(Nc1ccc2c(c1)OCO2)C1CCN(S(=O)(=O)c2cccs2)CC1
  -15%, 1.4%, -28%, 0
CS(=O)(=O)N1CCc2cc(C(=O)O)ccc21
  3%, -1.2%, -5%, 0
OCCNCCCCOc1ccc(F)cc1
  -13%, 0.0%, 2%, 5
N#CC1=C2SCN(Cc3ccco3)CN2C(=O)CC1c1c(F)cccc1Cl (stereo unspecified)
  -30%, ?, -2%, -11
Cc1ccc(S(=O)(=O)NCC(=O)N(CC(=O)NCc2ccco2)C2CCCC2)cc1
  -9%, -1.1%, 0%, /

Additional records follow:
Sequence of screens – Rango dissoc inh, Rango-impB inh, miR-21 FLuc, GLA inh pH 4.5
CC(C)(C)NC(=O)C(Cc1ccccc1)NS(=O)(=O)c1ccc2c(c1)CCC(=O)N2 (stereo unspecified)
  -5%, 0.0%, -5%, 4
O=C(CCSCCc1ccccn1)Nc1c(F)cc(F)cc1Br
  2%, -1.1%, -14%, 9
O=C(Nc1ccc(Cl)cn1)c1cc2c(s1)-c1ccccc1OC2
  ?, ?, -5%, ?
COc1ccc(N=C(C)C2=C(O)c3ccccc3C2=O)cc1
  ?, -3.2%, -26%, -1
O=C(C[n+]1ccn(CCCNP2(=O)C=C(c3ccccc3)OC(c3ccccc3)=C2)c1)c1cccs1
  -13%, 1.5%, -3%, -6
Cc1ccc(NC(=O)Nc2ccc3c(c2)CCC3)cc1
  -2%, -1.3%, -47%, /
O=C(NC1(C(F)(F)F)C(=O)Nc2c1c(=O)[nH]c(=O)n2-c1ccccc1)c1ccncc1 (stereo unspecified)
  -3%, -4.2%, /, /
O=C(Cn1cc(C(=O)COc2ccccc2)c2ccccc21)NCc1ccco1
  1%, 0.9%, -12%, -6
O=C(NCCCCc1ccccc1)Nc1cccc(F)c1
  19%, -2.0%, -1%, /
CN(C(=O)c1cccc(NC(=O)Cc2ccc(NC(=O)C3CCCN(C(=O)C4CCCCC4)C3)cc2)c1)C1CC1 (stereo unspecified)
  10%, -0.5%, /, /
C#CCNC(=O)C1=C[C@H](c2ccc3c(c2)OCO3)[C@@H](CCCO)[C@H](OCC)O1
  -5%, -6.3%, -4%, 1
CC1=CS/C(=C(/C#N)C(=O)N2CCCCC2)N1c1ccccc1
  3%, 3.4%, -4%, 0
COc1ccc(/C(O)=C2/C(=O)C(=O)N(CCN(C)C)C2c2ccc(C)cc2)cc1Cl (stereo unspecified)
  -6%, -0.7%, 0%, -2
Cc1nc2ccccc2c(=O)n1CCCN1CCOCC1
  -5%, -3.7%, 8%, -7
COc1ccc(NC(=S)NN2C(C)CCCC2C)cc1 (stereo unspecified)
  1%, -0.3%, -2%, 3
N#Cc1ccc(Cn2c(=O)oc3ccccc32)cc1
  -12%, -0.3%, -9%, /
CCCCCCN(C(=O)CCCCCN1C(=O)NC(c2ccc(-c3ccccc3)cc2)C(C(=O)OCc2ccccc2)=C1C)C(C)C(=O)NCCCC (stereo unspecified)
  /, /, -17%, 0&1
CCCN1CCN(C(=O)C(C)n2nc(C)c3sc4ccccc4c3c2=O)CC1 (stereo unspecified)
  -5%, 0.6%, -3%, /
O=C(N/N=C/c1cccc(O)c1)c1ccc(NC(=O)c2cccc([N+](=O)[O-])c2)cc1
  1%, -0.1%, 1%, -2
COc1ccc(OCc2cc(C(=O)N3CCSCC3)no2)c(Cl)c1
  -1%, -2.1%, -65%, /

Following part.
Sequence of screens – Rango dissoc inh, Rango-impB inh, miR-21 FLuc, GLA inh pH 4.5
CCOc1ccc(N(C(=O)c2snc(C(N)=O)c2N)C(CC)C(=O)NC2CCCC2)cc1 (stereo unspecified)
  -4%, -1.5%, 0%, /
CC(C)[C@@H]1COC(c2cccc(C3=N[C@H](C(C)C)CO3)n2)=N1
  14%, -1.9%, -1%, /
COc1ccccc1Cn1c(C)nnc1-c1cnn(C)c1N
  16%, 2.3%, 0%, -6
Cc1ccc(Oc2cc(NC(=O)CCCn3nc([N+](=O)[O-])c(Cl)c3C)cc([N+](=O)[O-])c2)cc1
  -8%, -0.1%, -6%, 1
CC1(C)S[C@@H]2[C@H](NC(=O)[C@H](C(=O)O)c3ccsc3)C(=O)N2[C@H]1C(=O)O
  /, /, -9%, 5&-5
CC1(C)Cc2c(c(N3CCOCC3)nc3sc(C(N)=O)c(N)c23)CO1
  6%, -0.3%, -4%, 1
COc1ccc(/C=C2\SC(=O)N(CCCC(=O)Nc3ccc(C(=O)O)cc3)C2=O)cc1OC
  3%, 0.5%, 1%, /
O=c1c2[nH]c3ccc(F)cc3c2ncn1Cc1ccncc1
  7%, -0.2%, -6%, -10
CC(NCC(=O)Nc1cc(S(=O)(=O)N2CCCCCC2)ccc1Cl)c1ccccc1 (stereo unspecified)
  1%, 0.1%, 18%, -20
COc1cccc(C(=O)COc2ccccc2-c2ccccc2)c1
  -5%, -2.9%, -5%, 7
O=C(c1ccc(S(=O)(=O)N2CCCCCC2)cc1)N1CCN(Cc2ccccc2)CC1
  -7%, -1.9%, /, /
CNC(=O)C1CC(=O)N(CCc2ccc(OC)c(OC)c2)C(=Nc2ccc(F)cc2)S1 (stereo unspecified)
  15%, -0.9%, -4%, 6
CCOc1ccc(CN2CCN(Cc3ccc4cc(F)ccc4n3)CC2CCO)cc1 (stereo unspecified)
  -10%, 5.0%, 10%, /
CCOC(=O)C1CC(c2ccc(Cl)cc2)=NNC1=O (stereo unspecified)
  0%, 0.3%, -16%, -4
O=C(CN(C1CCCCC1)S(=O)(=O)c1ccc(F)cc1)NCC1CCCO1 (stereo unspecified)
  2%, -2.1%, /, /
O=C(NCc1nnnn1-c1ccc(F)cc1)C1CC(=O)N(c2ccc(F)cc2)C1 (stereo unspecified)
  -6%, -0.1%, /, /
CCCC1(C(=O)O)NC(c2ccccc2O)C2C(=O)N(Cc3ccccc3)C(=O)C21 (stereo unspecified)
  -3%, 8.4%, 0%, 3
COc1ccccc1CNC(=O)C1CCN(C(=O)NC2CCCCC2)CC1
  0%, 0.0%, -5%, -5
Cc1c(C(=O)Nc2ccc(F)cc2)sc2ncn(CC(=O)N3CCCCC3)c(=O)c12
  -6%, -2.8%, -3%, /
O=S(=O)(c1ccc(C(F)(F)F)cc1)N1CCN(CCOc2ccccc2)CC1
  -7%, 3.6%, /, /

High-throughput results deposited in PubChem by National Center for Advancing Translational Sciences (NCATS).
